# Screening data (PubChem BioAssay)
# Yeast UUG start: modulators of yeast start codon fidelity, primary screen, whole organism, S. cerevisiae, single point, plate reader; S. cerevisiae UUG-firefly luciferase reporter, luminescence/redox ratio; activity score, % at 18.7 µM; 350,000 tested, 0.13% active; AID 602363, 2012;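 active = replicate mean at a twofold rise or more, about +100% in these data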;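 note: firefly luciferase made from a UUG start codon reports start codon fidelity; reporter light over untreated wells divided by growth signal over untreated wells; some hits fall short of that in this replicate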
# Env fusion inh: inhibitors of HIV-1 Env-driven cell-cell fusion, primary screen, HeLa-JRFL effector, CEM21 target cells, luciferase; inhibition, % at 12.3 µM; 360,000 tested, 1.1% active; AID 651610, 2012;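 active = mean replicate inhibition score of at least 50 and every replicate individually at or above 50; inconclusive = only one of the two criteria met; inactive = mean below 50 and not all replicates reaching 50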;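 note: 0% = plate neutral controls and 100% = maraviroc near 300 nM; one replicate is shown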
# * = called active by the depositor; ? = inconclusive; [ ] = remark or other dose. This is a subset, so the mix of outcomes need not match the whole.
SMILES,Yeast UUG start,Env fusion inh
CNC[C@@H]1Oc2c(NC(=O)Nc3ccc(C(F)(F)F)cc3)cccc2C(=O)N([C@H](C)CO)C[C@H]1C,3,2[16.7 µM]
Cc1noc(C)c1NC(=O)N(C)C[C@H]1Oc2ccc(NC(=O)Cn3cnnn3)cc2CC(=O)N([C@H](C)CO)C[C@@H]1C,-16,-13[16.7 µM]
C[C@H](CO)N1C[C@H](C)[C@@H](CN(C)Cc2ccncc2)OCCCC[C@H](C)Oc2ccc(NC(=O)Nc3ccc(C(F)(F)F)cc3)cc2C1=O,3,-6[16.7 µM]
O=C(N[C@@H]1CC[C@@H](CCn2cc(-c3ccccn3)nn2)O[C@@H]1CO)c1cccnc1,-30,16[16.7 µM]
C[C@H]1CN([C@@H](C)CO)C(=O)Cc2cc(NC(=O)Cc3cn(C)c4ccccc34)ccc2O[C@H]1CN(C)C(=O)Nc1ccc(C(F)(F)F)cc1,9,24[16.7 µM]
C[C@@H]1CN([C@H](C)CO)C(=O)c2cccc(NC(=O)C3CC3)c2O[C@H]1CN(C)C(=O)Nc1ccc2c(c1)OCO2,-1,6[16.7 µM]
C[C@@H]1CCCCO[C@@H](CN(C)Cc2ccncc2)[C@H](C)CN([C@H](C)CO)C(=O)c2cc(NS(=O)(=O)c3cn(C)cn3)ccc2O1,-4,13[16.7 µM]
C[C@@H]1CCCCO[C@@H](CN(C)C(=O)c2ccncc2)[C@H](C)CN([C@H](C)CO)C(=O)c2cc(NS(=O)(=O)c3cn(C)cn3)ccc2O1,-1,-3[16.7 µM]
C[C@H]1CN([C@@H](C)CO)C(=O)c2cc(C#CC3CCCC3)cnc2O[C@@H]1CN(C)C(=O)Nc1ccccc1,10,-12[16.7 µM]
Cc1ccc(-c2cnc3c(c2)C(=O)N([C@H](C)CO)C[C@@H](C)[C@@H](CN(C)CC2CCCC2)O3)cc1,2,-7[16.7 µM]
COc1ccc(S(=O)(=O)N(C)C[C@@H]2Oc3ccc(NS(=O)(=O)c4ccc(C)cc4)cc3CC(=O)N([C@H](C)CO)C[C@@H]2C)cc1,-2,28[16.7 µM]
C[C@@H]1CN([C@H](C)CO)S(=O)(=O)c2ccc(-c3ccccc3)cc2O[C@@H]1CN(C)S(=O)(=O)c1ccccc1F,-12,21[16.7 µM]
Cc1noc(C)c1NC(=O)N(C)C[C@@H]1OCCCC[C@H](C)Oc2ccc(NC(=O)Nc3ccc(C(F)(F)F)cc3)cc2C(=O)N([C@@H](C)CO)C[C@@H]1C,-8,8[16.7 µM]
C[C@H]1CN([C@@H](C)CO)C(=O)Cc2cc(NC(=O)Cc3cn(C)c4ccccc34)ccc2O[C@@H]1CN(C)Cc1ccc(Oc2ccccc2)cc1,-4,-10[16.7 µM]
CC(C)NC(=O)N(C)C[C@@H]1Oc2ccc(NC(=O)CCN3CCOCC3)cc2C(=O)N([C@@H](C)CO)C[C@@H]1C,1,14[16.7 µM]
C/C=C/c1ccc2c(c1)O[C@@H](CN(C)C(=O)NC1CCCC1)[C@H](C)CN([C@@H](C)CO)S2(=O)=O,8,-26[16.7 µM]
CCCc1cn(CC[C@@H]2CC[C@@H](NC(=O)C3CCCC3)[C@@H](CO)O2)nn1,-5,0[16.7 µM]
C[C@@H]1CN([C@H](C)CO)C(=O)c2cc(NC(=O)Nc3ccccc3)ccc2O[C@H]1CN(C)S(=O)(=O)c1cccs1,8,6[16.7 µM]
CCCC(=O)Nc1ccc2c(c1)C(=O)N(C)[C@H]1CC[C@@H](CC(=O)NCCOC)O[C@@H]1CO2,-6,-5[16.7 µM]
O=C(N[C@H]1CC[C@@H](CC(=O)N2CCc3ccccc3C2)O[C@H]1CO)C1CC1,16,-28[16.7 µM]
Cc1ccc(S(=O)(=O)N(C)C[C@@H]2OCCCC[C@@H](C)Oc3ccc(NC(=O)CCCCCC(=O)Nc4ccccc4N)cc3C(=O)N([C@H](C)CO)C[C@@H]2C)cc1,-13,8[16.7 µM]
COC(=O)C[C@@H]1C[C@@H]2c3cc(NC(=O)c4cccnc4)ccc3O[C@@H]2[C@@H](CO)O1,-6,9[16.7 µM]
COc1cccc(NC(=O)C[C@H]2CC[C@@H]3[C@H](COc4ccc(NC(C)=O)cc4C(=O)N3C)O2)c1,40,8[16.7 µM]
CCc1cnc(N2[C@H](C#N)[C@H](c3ccccc3)[C@H]2CO)s1,5,7[16.7 µM]
C[C@@H]1CN([C@@H](C)CO)C(=O)Cc2cc(NC(=O)CCCCCC(=O)Nc3ccccc3N)ccc2O[C@@H]1CN(C)Cc1ccc(-c2ccccc2)cc1,10,30[16.7 µM]

# Ordered by the number under Yeast UUG start (descending): three of the compounds above.
SMILES,Yeast UUG start,Env fusion inh
C[C@@H]1CN([C@H](C)CO)C(=O)c2cc(NC(=O)Nc3ccccc3)ccc2O[C@H]1CN(C)S(=O)(=O)c1cccs1,8,6[16.7 µM]
C[C@@H]1CN([C@H](C)CO)C(=O)c2cccc(NC(=O)C3CC3)c2O[C@H]1CN(C)C(=O)Nc1ccc2c(c1)OCO2,-1,6[16.7 µM]
COC(=O)C[C@@H]1C[C@@H]2c3cc(NC(=O)c4cccnc4)ccc3O[C@@H]2[C@@H](CO)O1,-6,9[16.7 µM]

# (list continues)
SMILES,Yeast UUG start,Env fusion inh
O=C(N[C@H]1CC[C@H](CCNC(=O)C2CCC2)O[C@H]1CO)c1ccncc1,-14,15[16.7 µM]
C[C@@H]1CCCCO[C@@H](CN(C)Cc2ccc(C(F)(F)F)cc2)[C@@H](C)CN([C@H](C)CO)C(=O)c2cc(NC(=O)NC3CCCCC3)ccc2O1,-1,-4[16.7 µM]
C[C@@H]1CN([C@@H](C)CO)C(=O)Cc2cc(NC(=O)Cc3cn(C)c4ccccc34)ccc2O[C@@H]1CN(C)CC1CCCCC1,-1,-78[16.7 µM]
O=C(Nc1ccc2c(c1)OCO2)N[C@@H]1CC[C@H](CCNC(=O)C2CCOCC2)O[C@@H]1CO,3,-1[16.7 µM]
C[C@@H](NC(=O)C[C@@H]1CC[C@H](NC(=O)C2CCOCC2)[C@@H](CO)O1)c1ccccc1,-6,-7[16.7 µM]
CNC(=O)C[C@H]1CC[C@@H]2[C@@H](COc3ccc(NC(=O)Nc4cc(C)cc(C)c4)cc3C(=O)N2C)O1,2,11[16.7 µM]
C[C@@H]1CN([C@@H](C)CO)S(=O)(=O)c2ccc(-c3ccccc3)cc2O[C@@H]1CN(C)CC1CC1,17,1[16.7 µM]
C[C@@H]1CN([C@@H](C)CO)C(=O)Cc2cc(NS(C)(=O)=O)ccc2O[C@@H]1CN(C)C(=O)NC1CCCCC1,-14,3[16.7 µM]
Cc1ccc(S(=O)(=O)N(C)C[C@H]2OCCCC[C@@H](C)Oc3ccc(NC(=O)C4CCCCC4)cc3C(=O)N([C@H](C)CO)C[C@H]2C)cc1,-4,?
C[C@@H]1CN([C@@H](C)CO)S(=O)(=O)c2ccc(-c3cccc(F)c3)cc2O[C@@H]1CN(C)S(C)(=O)=O,14,12[16.7 µM]
C[C@H](CO)N1C[C@H](C)[C@@H](CN(C)Cc2ccccc2)Oc2ncc(-c3cccc(C#N)c3)cc2C1=O,-6,-6[16.7 µM]
C[C@@H]1CN([C@H](C)CO)S(=O)(=O)c2ccc(-c3cccc(F)c3)cc2O[C@H]1CN(C)C(=O)c1cccc(F)c1,13,24[16.7 µM]
C[C@H]1CN([C@@H](C)CO)C(=O)c2cc(NC(=O)C3CC3)ccc2O[C@@H]1CN(C)Cc1ccncc1,-6,0[16.7 µM]
Cc1noc(C)c1NC(=O)Nc1ccc2c(c1)C(=O)N([C@@H](C)CO)C[C@@H](C)[C@H](CN(C)Cc1ccc(C(F)(F)F)cc1)OCCCC[C@@H](C)O2,18,-94[16.7 µM]
C[C@H](CO)N1C[C@H](C)[C@H](CN(C)Cc2ccncc2)Oc2ncc(C#CC3CCCC3)cc2C1=O,-15,-1[16.7 µM]
C[C@@H]1CN([C@H](C)CO)C(=O)c2cc(NC(=O)c3ccccc3)ccc2O[C@@H](C)CCCCO[C@@H]1CN(C)Cc1ccc(C(F)(F)F)cc1,9,30[16.7 µM]
C[C@H](CO)N1C[C@H](C)[C@H](CN(C)C(=O)Nc2ccccc2)Oc2ccc(NC(=O)Nc3ccc(F)cc3)cc2C1=O,10,-1[16.7 µM]
COCCNC(=O)C[C@H]1C[C@H]2c3cc(NC(=O)c4ccc5c(c4)OCO5)ccc3O[C@H]2[C@@H](CO)O1,137*,-13[16.7 µM]
O=C(C[C@@H]1C=C[C@@H](NS(=O)(=O)c2cccc(F)c2)[C@@H](CO)O1)N1CCCCC1,-15,-43[16.7 µM]
C[C@H](O)C#Cc1cnc2c(c1)C(=O)N([C@H](C)CO)C[C@H](C)[C@H](CN(C)Cc1ccc(-c3ccccc3)cc1)O2,2,-17[16.7 µM]
C[C@H]1CN([C@@H](C)CO)S(=O)(=O)c2ccc(Br)cc2O[C@@H]1CN(C)Cc1ccncc1,14,6[16.7 µM]
C[C@@H]1CCCCO[C@@H](CN(C)C(=O)c2ccccc2)[C@@H](C)CN([C@H](C)CO)C(=O)c2cc(NC(=O)NC3CCCCC3)ccc2O1,5,3[16.7 µM]
C[C@H](CO)N1C[C@H](C)[C@@H](CN(C)C)OCCCC[C@H](C)Oc2ccc(NC(=O)CCC(F)(F)F)cc2C1=O,-12,2[16.7 µM]
CNC[C@H]1Oc2cc(C#CCC3CCCC3)ccc2S(=O)(=O)N([C@@H](C)CO)C[C@@H]1C,15,18[16.7 µM]
Cc1noc(C)c1NC(=O)N(C)C[C@@H]1OCCCC[C@@H](C)Oc2ccc(NS(=O)(=O)c3ccccc3)cc2C(=O)N([C@H](C)CO)C[C@H]1C,-1,-41[16.7 µM]

# 5 compounds already listed, ordered by heavy-atom count, ascending.
SMILES,Yeast UUG start,Env fusion inh
O=C(C[C@@H]1C=C[C@@H](NS(=O)(=O)c2cccc(F)c2)[C@@H](CO)O1)N1CCCCC1,-15,-43[16.7 µM]
C[C@@H](NC(=O)C[C@@H]1CC[C@H](NC(=O)C2CCOCC2)[C@@H](CO)O1)c1ccccc1,-6,-7[16.7 µM]
CNC[C@H]1Oc2cc(C#CCC3CCCC3)ccc2S(=O)(=O)N([C@@H](C)CO)C[C@@H]1C,15,18[16.7 µM]
COCCNC(=O)C[C@H]1C[C@H]2c3cc(NC(=O)c4ccc5c(c4)OCO5)ccc3O[C@H]2[C@@H](CO)O1,137*,-13[16.7 µM]
C[C@H](CO)N1C[C@H](C)[C@@H](CN(C)Cc2ccccc2)Oc2ncc(-c3cccc(C#N)c3)cc2C1=O,-6,-6[16.7 µM]

# More compounds:
SMILES,Yeast UUG start,Env fusion inh
CCC(=O)Nc1ccc2c(c1)OC[C@@H](C)N(Cc1ccccc1F)C[C@H](C)[C@@H](OC)CN(C)C2=O,-9,-2[16.7 µM]
COc1cccc(-c2ccc3c(c2)O[C@H](CN(C)C(=O)c2ccccc2F)[C@@H](C)CN([C@@H](C)CO)S3(=O)=O)c1,1,3[16.7 µM]
Cc1noc(C)c1S(=O)(=O)N(C)C[C@@H]1OCCCC[C@@H](C)Oc2ccc(NS(=O)(=O)c3ccc(Cl)cc3)cc2C(=O)N([C@H](C)CO)C[C@H]1C,-9,12[16.7 µM]
O=C(O)C1=C[C@@H](C2CCCC2)C[C@@H](OCCCCO)O1,4,-16[16.7 µM]
C[C@@H]1CN([C@@H](C)CO)C(=O)c2cc(NS(=O)(=O)c3ccccc3)ccc2O[C@@H](C)CCCCO[C@@H]1CN(C)Cc1ccncc1,11,-34[16.7 µM]
COc1ccc(S(=O)(=O)Nc2ccc3c(c2)C(=O)N([C@@H](C)CO)C[C@@H](C)[C@H](CN(C)Cc2ccc(C(F)(F)F)cc2)OCCCC[C@@H](C)O3)cc1,5,?
C[C@H](CO)N1C[C@H](C)[C@@H](CN(C)C(=O)C2CCCCC2)Oc2cc(C3=CCCCC3)ccc2S1(=O)=O,7,12[16.7 µM]
O=C(CCN1CCCCC1)N[C@H]1CC[C@@H](CCNS(=O)(=O)c2ccc(F)cc2)O[C@H]1CO,-6,-47[16.7 µM]
C[C@H]1CN([C@@H](C)CO)C(=O)Cc2cc(NC(=O)CCCCCC(=O)Nc3ccccc3N)ccc2O[C@@H]1CN(C)C(=O)Nc1ccccc1,6,-29[16.7 µM]
COc1cc2c(cc1OC)CN(C(=O)[C@H]1[C@@H]3C(=O)O[C@@H](c4ccccc4)[C@@H](c4ccccc4)N3[C@@H](c3ccc(O)cc3)[C@]13C(=O)Nc1ccc(C#CC4(O)CCCCCC4)cc13)CC2,-4,-5[16.7 µM]
C[C@H](O)C#Cc1ccc2c(c1)O[C@H](CN(C)C(=O)C1CCC1)[C@H](C)CN([C@@H](C)CO)S2(=O)=O,35,-89[16.7 µM]
C[C@H](CO)N1C[C@H](C)[C@H](CN(C)S(=O)(=O)c2ccc(Cl)cc2)Oc2ccc(NC(=O)CCN3CCOCC3)cc2CC1=O,12,13[16.7 µM]
Cc1ccc(S(=O)(=O)N[C@@H]2CC[C@H](CC(=O)NC3CCCCC3)O[C@@H]2CO)cc1,13,-21[16.7 µM]
O=C(C[C@H]1CC[C@@H](NS(=O)(=O)c2ccc(F)cc2)[C@H](CO)O1)NCCN1CCCCC1,6,-8[16.7 µM]
COc1ccccc1NC(=O)N[C@@H]1CC[C@@H](CCn2cc(-c3ccccc3)nn2)O[C@@H]1CO,6,10[16.7 µM]
O=C(C[C@@H]1C[C@H]2c3cc(NS(=O)(=O)c4ccc(F)cc4)ccc3O[C@H]2[C@H](CO)O1)NCc1ccc(Cl)cc1,4,-83[16.7 µM]
COc1cccc(S(=O)(=O)N[C@H]2C=C[C@H](CC(=O)NC3CCC3)O[C@H]2CO)c1,-8,-2[16.7 µM]
COc1ccc(S(=O)(=O)Nc2ccc3c(c2)C(=O)N([C@H](C)CO)C[C@H](C)[C@@H](CN(C)Cc2ccccc2)OCCCC[C@H](C)O3)cc1,12,-26[16.7 µM]
C[C@H](CO)N1C[C@H](C)[C@H](CN(C)C)Oc2ncc(C3=CCCC3)cc2C1=O,-8,-10[16.7 µM]
